A1 inh: caspase 3/7 activation in MEF A1-2A-BIM cells, primary screen, A1 inhibitor project, cell-based, luminescence, HTS. caspase activation, % (concentration not given with the values). hit rate 0.066% among 330,000. Caspase-Glo 3/7 luminescence, 3 h; percent of clofoctol response, vehicle zero;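 active means over half of replicate activation scores above 10%, or exactly half above 10 with the replicate mean above 10; inconclusive means replicate mean below 10 yet half the replicates above 10; inactive means over half of replicates below 10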;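 further: wells of about 30 µL received 50 nL stock; many hits fall short of the cut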
LANA-H2B inh: blockers of LANA interaction with H2A/H2B – biochemical, FP readout, HTS, primary screen; AID 2629, 2010; inhibition, % (test concentration not listed); hit rate 0.6% among 320,000; cell-free LANA-H2A/H2B peptide, fluorescence polarization; in the data active means inhibition mostly above about 10%, no sharp cut-off; inactive means mostly below about 6.7%;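 further: stock transfer was 7.5 nL into about 10 µL; 0% = median of vehicle wells and 100% = median of positive control wells; one replicate is shown; the record names a cut of 25% in any replicate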
Beta2AR agonist: beta2AR agonists driving receptor internalization, primary screen, cell-based, FAP fluorogen, flow cytometry. Beta-2 adrenergic receptor (Homo sapiens), P07550. Am2.2-beta2AR cells; reference of the scale not given here. hit rate 0.43% among 340,000. response, % (no concentration beside the values);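 active means response above a set limit, near 3 SD of response in nonfluorescent compounds, cut at about 42% in these data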;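 further: stock transfer was 100 nL into about 11 µL; a reference agonist was the positive control; negative values mostly stem from fluorescent compounds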
Target sequence (P07550 whole entry, looked up): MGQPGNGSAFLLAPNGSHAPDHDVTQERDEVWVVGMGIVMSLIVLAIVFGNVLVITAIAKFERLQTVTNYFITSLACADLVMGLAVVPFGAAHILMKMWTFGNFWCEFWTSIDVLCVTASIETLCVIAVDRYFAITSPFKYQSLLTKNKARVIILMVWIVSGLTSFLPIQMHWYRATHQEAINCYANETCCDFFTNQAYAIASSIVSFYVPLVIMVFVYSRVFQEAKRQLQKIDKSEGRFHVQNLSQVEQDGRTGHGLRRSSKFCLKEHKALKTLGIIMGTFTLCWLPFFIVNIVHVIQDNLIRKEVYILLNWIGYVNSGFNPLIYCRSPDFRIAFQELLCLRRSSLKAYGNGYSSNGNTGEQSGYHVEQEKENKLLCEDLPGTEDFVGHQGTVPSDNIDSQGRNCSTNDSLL
Beta cell apopt: inhibitors of cytokine-induced beta cell apoptosis, primary screen, luminescence; INS-1E cytokine-induced death, ATP luminescence, 48 h; percent of positive-control rescue, neutral wells zero; protection from apoptosis, % (concentration not given with the values); hit rate 0.8% among 300,000; AID 435005, 2010;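 active means all replicates at 75% or more, or half of them and the mean; inconclusive means half reach 75% but not the mean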;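 further: 0% = cytokine-treated negative control wells and 100% = positive control rescue; higher means more ATP so stronger rescue from cytokine killing; wells of about 40 µL received 100 nL stock; the first replicate is given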
RanGTP-Imp inh: inhibitors of RanGTP-importin-beta interaction, primary screen, biochemical, FRET, CFP-Ran, YFP-importin-beta, homogeneous; cell-free CFP-Ran/YFP-importin-beta FRET ratio; hit rate 1.1% among 300,000; Ran GTPase (GTP-bound) - importin-beta complex; inhibition, % (concentration not given with the values); AID 2216, 2009;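 active means most replicates above 15%; inconclusive means exactly half above 15%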;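 further: 0% = DMSO wells and 100% = Ran loaded with GDP instead of GTP; wells of about 40 µL received 100 nL stock; the first replicate is given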
T cruzi inh: inhibitors of intracellular T. cruzi growth, primary screen, luminescence, NIH3T3 host cells. hit rate 1.4% among 300,000. T. cruzi beta-gal in NIH3T3, 90 h. inhibition, % (test concentration not listed). AID 1885, 2009;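 active means mean inhibition across valid replicates above about 55%, limit read from the data; inconclusive means mean below that limit but half or more replicates reach it; inactive means mean below it, under half of replicates reach it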;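 further: signal also drops with host cell toxicity which is not excluded here; 0% = plate median of DMSO wells and 100% = zero luminescence signal; higher percent means less beta-gal luminescence so fewer parasites; stock transfer was 50 nL into about 50 µL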
UCH37 inh: inhibitors of human UCH37 deubiquitinase, primary screen, biochemical, Ub-AMC cleavage, fluorescence | Ubiquitin carboxyl-terminal hydrolase isozyme L5 (Homo sapiens), Q9Y5K5 | purified proteasome/UCH37 | inhibition, % (concentration not given with the values) | hit rate 0.33% among 330,000;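 active means mean of two replicates above 20%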;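 further: 0% = compound-free wells with enzyme and 100% = wells lacking proteasome; stock transfer was 100 nL into about 20 µL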
Target sequence (Q9Y5K5 whole entry, looked up): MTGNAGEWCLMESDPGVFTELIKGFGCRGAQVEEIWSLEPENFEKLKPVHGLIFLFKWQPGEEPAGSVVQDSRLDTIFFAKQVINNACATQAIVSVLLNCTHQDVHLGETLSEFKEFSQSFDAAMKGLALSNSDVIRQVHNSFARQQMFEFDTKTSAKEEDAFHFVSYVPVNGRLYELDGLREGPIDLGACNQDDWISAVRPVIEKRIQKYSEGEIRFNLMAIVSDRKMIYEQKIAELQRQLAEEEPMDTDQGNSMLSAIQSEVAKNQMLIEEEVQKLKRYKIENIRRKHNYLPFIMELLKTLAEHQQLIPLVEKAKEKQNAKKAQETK
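Material: Human UCH37 enzyme supplied as purified proteasome complex | Schedule: 30 min compound-proteasome preincubation then 25 min substrate reaction, room temperature | Detection: AMC fluorescence from Ub-AMC cleavage, excitation 355 nm, emission 460 nm | Benchmarks: Wells without proteasome as full block, compound-free enzyme plus substrate as uninhibited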
Calb FLC: C. albicans growth inhibition with fluconazole, primary screen, CaCi-2 strain, Alamar Blue fluorescence | C. albicans CaCi-2 (fluconazole-resistant clinical isolate) + fluconazole, 48 h | growth inhibition, % (test concentration not listed) | hit rate 0.57% among 300,000 | AID 1979, 2009;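 active means most replicates above 75%; inconclusive means exactly half above 75%; inactive means most below 75%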;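 further: all wells also contain fluconazole at 8 µg/ml as a sub-toxic cotreatment; 0% = median of DMSO wells and 100% = median of geldanamycin control wells; wells of about 8 µL received 7.5 nL stock; the first replicate is given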
An asterisk follows results filed as active; i = inactive; ? = inconclusive; . = no result given.

structure	A1 inh	LANA-H2B inh	Beta2AR agonist	Beta cell apopt	RanGTP-Imp inh	T cruzi inh	UCH37 inh	Calb FLC
CS(=O)(=O)c1cccc(C(=O)N(CCc2ccccc2)Cc2cccs2)c1	1.7	-2.7	3	-3	2.4	16	2.6	16
COc1ccc(CCN(Cc2nc3ccccc3c(=O)[nH]2)C(=O)c2ccco2)cc1	1.1	0.1	4	2	5.3	-10	1.9	18
Cc1ccc(CS(=O)(=O)Cc2ccc(C(=O)NCCCN3CC(C)CC(C)C3)o2)cc1 (stereo not given)	0.1	5.0	6	-5	0.1	7	1.3	30
Cc1cc(C)cc(NC(=O)Nc2ccc(N3CCCCC3)cc2)c1	-6.8	0.2	7	-4	4.3	14	-1.3	7
CN(CC(=O)N1CC=C(c2ccccc2)CC1)S(=O)(=O)c1ccc2c(c1)c(=O)n(C)c(=O)n2C	0.6	1.1	-6	-2	-0.6	-11	2.3	3
O=C(NCc1ccccc1)C(=O)c1cn(CC(=O)N2CCOCC2)c2ccccc12	0.3	-8.4	-6	-2	2.0	1	5.7	-10
O=c1cnn(Cc2c(Cl)cccc2Cl)c2ccccc12	0.3	2.0	-2	4	0.9	0	5.8	20
COc1ccccc1NC(CC(=O)c1ccccc1)C(=O)OCC(=O)c1ccc(F)cc1 (stereo not given)	0.8	-4.4	4	2	4.1	-15	1.2	-2
O=C(Nc1ccc(-c2csc(Nc3ccc(Cl)cc3)n2)cc1)c1ccccc1	-0.5	2.4	3	3	.	.	-2.6	.
CCOC(=O)C(NCc1ccco1)(NC(=O)c1ccccc1)C(F)(F)F (stereo not given)	-0.7	-0.3	4	-4	-0.8	-7	1.7	-7
O=C1c2ccccc2C(O)N1Cc1ccccc1 (stereo not given)	0.5	5.0	-3	2	-4.3	-20	5.2	7
C#CCOc1ccc(CNC[C@H]2O[C@@H](n3cnc4c(N)ncnc43)[C@H](O)[C@@H]2O)cc1	0.2	-2.9	-4	-3	.	.	1.9	.
COc1ccc(C(=O)C2CCCN(C(=O)c3ccc4nccnc4c3)C2)c(C)c1 (stereo not given)	0.3	3.8	-9	-1	21	-1	5.6	3
CC(C)Cc1nnc(NC(=O)c2ccc3c(c2)OCCO3)s1	-0.2	4.4	-3	-2	.	.	3.4	.
COc1ccc(CN(C)C(=O)c2cnc(C)cn2)c(OC)c1OC	-0.4	0.8	-4	-9	-2.2	-4	0.9	-3
COc1cccc(C(=O)NNC(=O)C(=O)Nc2cccc(Cl)c2C)c1	0.7	5.8	10	-5	3.9	-6	7.2	-3
CCOc1ccc(-c2cc(CCCC(=O)NCCCOC)no2)cc1	-0.1	-3.7	-9	-2	-5.1	-7	0.6	-8
Cc1ccccc1NCN1C(=O)C2C3C=CC(C3)C2C1=O (stereo not given)	-0.7	-4.9	7	1	?	25	2.6	3
COc1ccc(NC(=O)CSc2n[nH]c(N)n2)c([N+](=O)[O-])c1	-0.3	-1.2	2	-9	2.6	-9	2.8	7
Cc1ccc(S(=O)(=O)NC2CC(C)(C)NC(C)(C)C2)cc1C	0.9	0.2	-7	-6	1.7	-21	.	-10
CCC(=O)N1CCc2cc(S(=O)(=O)NCCC(=O)N3CC=C(c4ccccc4)CC3)ccc21	0.2	7.5	-19	33	.	.	.	.
O=C(NCc1ccccn1)Nc1ccc(F)c(Cl)c1	-0.2	-4.0	7	1	0.6	4	4.4	1
O=c1cc(CO)oc(CN2CCN(c3ccccc3F)CC2)c1O	-0.7	0.0	-1	-4	2.6	-11	4.3	24
COc1ccc(CCNC(=O)CN(c2ccccc2OC)S(C)(=O)=O)cc1	0.8	-5.1	-4	-7	-2.6	-2	0.1	4
CCCCNCc1cccn1-c1ccccc1	0.5	2.2	-2	-4	-0.2	-5	2.9	-19
CCCCc1nnc(NC(=O)CN(C)S(=O)(=O)c2ccc(C)cc2)s1	-0.1	-4.1	-5	-3	-1.6	14	2.5	-19
Cc1ccc(C(=O)Cc2nnc(C)s2)cc1	0.4	2.1	-23	-6	2.9	4	-0.7	3
COc1cccc(Cn2cccc(NC(=O)NC3CCCCC3)c2=O)c1	0.0	-3.0	-16	5	2.7	-7	-3.1	2
CCOc1ccccc1NC(=O)NCCN1CCCCC1	-0.3	15*	2	-2	?	-12	1.7	0
CCOC(=O)C1(CC2CCCCO2)CCN(C(=O)Nc2ccc(C)c(C)c2)CC1 (stereo not given)	0.5	-2.5	2	-4	4.5	12	1.2	-2
CCCCCC(=O)N1CC2(CC(c3cccc(NC(=O)COc4ccc(Cl)cc4)c3)=NO2)C[C@@H]1C(N)=O (stereo not given in full)	0.7	7.3	0	0	5.2	34	-1.5	-4
CCCCONc1ncnc2nonc12	-0.5	-7.7	-2	0	4.9	-22	7.6	?
COc1ccc(NC(=O)c2ccc(C(=O)Nc3ccc(OC)cc3OC)cc2)c(OC)c1	0.5	3.6	-1	-2	1.9	2	-0.3	?
COc1ccc(-c2cn(-c3cccc(C)c3)c(=O)[nH]2)cc1OC	-0.9	-4.5	7	-2	-4.3	-13	-3.8	2
CC(=O)NC(=S)Nc1cccc2c(C)cc(C)nc12	-1.3	0.7	-4	0	-1.1	-6	3.7	-1
O=C1c2cccc3cccc(c23)C(=O)N1CCN1CCN(C(=S)Nc2ccccc2)CC1	0.6	-3.3	11	2	3.0	31	2.9	7
CC1(C)Oc2ccc3ccc(=O)oc3c2C(/C=N/O)=C1Cl	0.8	0.9	-2	-5	-8.1	-15	.	3
CN(C(=O)C(C)(C)C)c1ccc(OCC(=O)N2CCc3ccccc3C2)cc1	-0.5	1.4	0	8	-0.5	12	1.4	-6
CC(=O)Oc1ccc(C23CC4CC(CC(C4)C2)C3)cc1C(=O)O	2.8	-1.8	.	6	2.5	-15	.	30
COc1cc(OC)cc(C(=O)NNC(=O)CNC(=O)c2ccc(Br)o2)c1	0.6	-8.0	3	0	.	-5	2.0	9

Entries of single compounds, quoted from the list:
Cc1cc(C)cc(NC(=O)Nc2ccc(N3CCCCC3)cc2)c1 reads A1 inh: -6.8; LANA-H2B inh: 0.2; Beta2AR agonist: 7; Beta cell apopt: -4; RanGTP-Imp inh: 4.3; T cruzi inh: 14; UCH37 inh: -1.3; Calb FLC: 7
O=C1c2ccccc2C(O)N1Cc1ccccc1 (stereo not given) reads A1 inh: 0.5; LANA-H2B inh: 5.0; Beta2AR agonist: -3; Beta cell apopt: 2; RanGTP-Imp inh: -4.3; T cruzi inh: -20; UCH37 inh: 5.2; Calb FLC: 7
O=C(NCc1ccccn1)Nc1ccc(F)c(Cl)c1 reads A1 inh: -0.2; LANA-H2B inh: -4.0; Beta2AR agonist: 7; Beta cell apopt: 1; RanGTP-Imp inh: 0.6; T cruzi inh: 4; UCH37 inh: 4.4; Calb FLC: 1

(list continues)
structure	A1 inh	LANA-H2B inh	Beta2AR agonist	Beta cell apopt	RanGTP-Imp inh	T cruzi inh	UCH37 inh	Calb FLC
Cc1cc(O)c(C2(C(F)(F)F)NCCNC2=O)cc1C (stereo not given)	-0.3	0.4	2	0	.	-12	5.9	20
CN(C)c1cccc(NC(=O)c2cccc3ccccc23)c1	1.4	3.7	-18	-4	-0.5	29	0.5	14
Cc1c2c(n3c(nc4ccccc43)c1C#N)N(CCCN(C)C)CC2	-0.7	2.3	-10	5	0.7	63*	i	3
Nc1nnc(SCC(=O)c2ccc([N+](=O)[O-])cc2)s1	-0.2	2.7	-4	-7	-4.3	8	0.8	-3
COC(=O)/C=C/c1cnc[nH]1	0.8	0.2	2	-2	2.7	-10	6.9	3
CCOC(=O)C1(CC/C(C)=N\NC(N)=O)CC(C)(C)OC1=O (stereo not given)	1.6	.	0	-4	5.6	-13	.	7
CCn1c(=O)[nH]c(=O)c2c(N)c(C(=O)c3ccccc3OC)sc21	0.4	0.9	0	-6	2.5	-25	12	3
Cc1ccc(S(=O)(=O)CCC(=O)OCc2ccccc2)cc1	-0.2	6.7	13	3	-1.8	-17	3.5	?
O=C1Nc2ccc([N+](=O)[O-])cc2OC1CCN1CCOCC1 (stereo not given)	0.0	5.6	-6	9	-2.7	-6	11	4
COc1cc(C(=S)N2CCCC2)ccc1OC(=O)c1ccc(Cl)cc1[N+](=O)[O-]	0.1	1.0	-3	-5	?	3	4.8	-2
O=C(CNc1cccc(S(=O)(=O)N2CCOCC2)c1)Nc1ccc(C(F)(F)F)cc1	-0.7	-1.1	-2	-4	0.2	-1	-0.3	0
NC(=O)c1ccc(N2CCCCCC2)c([N+](=O)[O-])c1	1.1	2.7	-13	0	-4.0	9	4.0	-1
Cc1cccc(NC(=S)NNC(=O)c2csc3c2CCC(C)C3)c1 (stereo not given)	.	.	-10	.	0.7	-20	4.3	-9
CCC1Oc2ccc(C)cc2N(CC(=O)NCCCN2CCCCC2C)C1=O (stereo not given)	0.6	1.5	-1	1	2.9	12	.	-4
Cc1ccccc1OCCn1cc(C(=S)N2CCCC2)c2ccccc21	-1.3	3.4	-8	12	?	21	4.9	-7
CCOc1ccc(CN(C)CC(=O)c2c(N)n(Cc3ccccc3)c(=O)n(CC)c2=O)cc1OC	0.6	-3.7	4	-9	4.5	30	-0.2	1
Cc1[nH][nH]c(=O)c1N=Nc1ccc(F)cc1	-2.1	-8.3	-7	.	6.9	-8	13	7
COc1ccc(Cl)cc1NC(=O)CN(C)C(=O)c1ccc2c(c1)OCCO2	0.2	-1.3	5	4	-0.5	1	1.7	0
CC(C)(NC(=O)c1ccccc1)c1nc2ccccc2s1	0.1	4.7	0	0	-4.4	-21	2.3	-4
O=C(O)CC(CC(=O)Nc1ccc(Oc2ccccc2)cc1)c1ccccc1 (stereo not given)	0.1	9.1	-8	0	0.6	-10	2.9	-11
Cc1nnc(SCC(=O)N(C)C2CCCCC2)n1C	0.3	7.1	1	0	.	.	4.1	.
CCCCN(C(=O)C1=COCCO1)c1c(N)n(CCCC)c(=O)[nH]c1=O	-0.2	-6.6	-10	0	10	0	-0.5	-2
O=C(COC(=O)CCC(=O)c1cccs1)Nc1cc(S(=O)(=O)N2CCOCC2)ccc1Cl	0.7	1.5	3	1	-1.3	-27	-0.5	-10
